KCNQ2 enhance = potentiators of rat KCNQ2 potassium channel. CHO-K1 KCNQ2, FluxOR thallium flux fluorescence; hits give high values. B-score at 10 µM. 310,000 compounds, 0.54% hits. AID 2239;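 active means fluorescence ratio B-score at least 3 SD of library B-scores, with initial fluorescence B-score within 3 SD, cut at about 5.3 in these data; same plate scores as AID 2156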;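 further: B-score of peak minus minimum over baseline fluorescence ratio after K+ and Tl+ stimulus; positive B-score means potentiation of KCNQ2 with more thallium influx and brighter signal; only the inactives scoring about 0 or higher are listed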
Target sequence (O88943 whole entry, looked up): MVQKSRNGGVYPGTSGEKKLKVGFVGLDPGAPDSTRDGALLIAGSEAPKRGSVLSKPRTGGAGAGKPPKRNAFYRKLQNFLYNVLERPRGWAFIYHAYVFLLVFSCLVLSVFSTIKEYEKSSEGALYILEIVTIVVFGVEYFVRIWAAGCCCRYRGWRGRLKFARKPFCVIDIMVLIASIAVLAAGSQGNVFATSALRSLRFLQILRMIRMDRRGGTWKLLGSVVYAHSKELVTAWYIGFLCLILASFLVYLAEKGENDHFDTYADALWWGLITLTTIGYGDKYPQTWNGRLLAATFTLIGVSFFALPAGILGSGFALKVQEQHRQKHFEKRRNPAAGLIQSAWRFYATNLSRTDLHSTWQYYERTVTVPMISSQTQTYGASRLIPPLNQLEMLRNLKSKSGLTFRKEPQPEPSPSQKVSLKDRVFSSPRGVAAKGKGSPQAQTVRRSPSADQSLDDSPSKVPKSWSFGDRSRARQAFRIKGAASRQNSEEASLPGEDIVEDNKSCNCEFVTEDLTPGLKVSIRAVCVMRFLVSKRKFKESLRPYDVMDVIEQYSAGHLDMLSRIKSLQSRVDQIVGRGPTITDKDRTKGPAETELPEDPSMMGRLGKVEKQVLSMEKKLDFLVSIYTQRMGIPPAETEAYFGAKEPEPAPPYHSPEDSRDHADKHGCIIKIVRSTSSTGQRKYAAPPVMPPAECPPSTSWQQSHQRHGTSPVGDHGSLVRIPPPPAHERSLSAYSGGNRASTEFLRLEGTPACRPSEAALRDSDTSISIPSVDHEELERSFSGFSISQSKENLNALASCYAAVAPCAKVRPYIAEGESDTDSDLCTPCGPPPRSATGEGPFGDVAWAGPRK
KCNQ2 enhance baseline = further read-out of KCNQ2 enhance, marked with its call; B-score; compound at 10 µM; measured here: initial fluorescence intensity artifact check;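 brightness before thallium and not channel activity; 0 = typical well and far values either way flag optical interference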
Numbers without * were called inactive.

SMILES | KCNQ2 enhance | KCNQ2 enhance baseline
Cn1c(=O)c([N+](=O)[O-])c(NC2CCS(=O)(=O)C2)c2ccccc21 (centres undefined) | 0.06 | 1.9
COc1ccc(CCNC(=O)C(=O)NCC2OCCN2S(=O)(=O)c2ccc(OC)c(OC)c2)cc1OC (centres undefined) | 0.03 | -0.7
C=CCNC(=O)c1ccc(C2SCC(=O)N2Cc2ccco2)cc1 (centres undefined) | 0.15 | -0.63
Nc1nonc1-n1nnc(C(=O)N/N=C/c2ccc(Cl)cc2)c1-c1ccc2c(c1)OCO2 | 0.75 | 0.26
Cc1cc(C(=O)CSc2nc3ccccc3o2)c(C)n1C1CC1 | 0.57 | -1.1
C=CCn1c(SCC(=O)NC(=O)c2cccc([N+](=O)[O-])c2)nnc1-c1ccccc1 | 1.1 | 1.8
COc1ccc2nc3cc(Cl)ccc3c(Nc3cc(CN4CCCC4)c(O)c(CN4CCCC4)c3)c2n1 | 1.4 | -3.8
COC(=O)c1ccc(CSc2nnc(-c3c[nH]c4ccccc34)n2-c2ccccc2)cc1 | 0.1 | -1.3
CC(=O)N1CCC[C@H]1C(=O)O | 1.2 | -1.2
O=C(CN(Cc1ccc(F)cc1)C(=O)CNS(=O)(=O)c1ccc(F)cc1)NCc1ccco1 | 0.11 | -0.05
COC(=O)c1cc(NC(=S)NCc2ccc(Cl)cc2)cc(C(=O)OC)c1 | 0.54 | -0.02
Cc1ccc(S(=O)(=O)N(C)CCCC(=O)Nc2cc(C)ccc2C)cc1 | 2.2 | -1.1
CCCCNC(=O)CSc1nc2ccc(NC(=O)CSc3nnc(N)s3)cc2s1 | 0.83 | -0.65
NC(=O)NCC(=O)N1CCC(C(O)(c2ccccc2)c2ccccc2)CC1 | 0.16 | -0.65
CSc1ccccc1NC(=O)c1ccc(N2CC3CC(C2)c2cccc(=O)n2C3)c(NC(=O)c2ccncc2)c1 (centres undefined) | 0.35 | -2.7
CN(C)c1ccc(S(=O)(=O)N2CCCCC2)cc1NC(=O)CN1C(=O)NC(C)(c2ccccc2)C1=O (centres undefined) | 1.3 | 0.98
Cc1ccc(S(=O)(=O)/N=C(\c2ccc(Cl)cc2)N2CCOCC2)cc1 | 1 | -1.3
O=C1c2ccccc2C(=O)N1Cc1nc2ccccc2c(=O)n1CCCn1ccnc1 | 1.9 | 2.1
C[n+]1ccccc1C1CCCC/C1=N\Nc1ccc([N+](=O)[O-])cc1[N+](=O)[O-] (centres undefined) | 1.1 | -0.29
O=C(Cn1nnc(-c2ccccc2)n1)N/N=C/c1cc([N+](=O)[O-])c(Cl)cc1Cl | 1.1 | -2.9
COc1ccc(O)c(/C=N/NC(=O)CN2CCS(=O)(=O)CC2)c1 | 0.59 | 0.76
CCN(CC)C(=O)c1ccc2c(=O)n(Cc3cccc(Br)c3)c(=S)[nH]c2c1 | 0.07 | 1.1
COC(=O)c1sccc1NC(=O)Nc1ccccc1C | 0.69 | -0.47
O=C(NCc1ccco1)Nc1ccc(OC(F)(F)F)cc1 | 0.15 | -0.66
S=c1[nH]c(-c2ccccc2)cn1/N=C/c1ccc(Br)cc1 | 4.1 | 1.6
CCn1c(=O)c2cc(S(=O)(=O)NCc3ccccc3)ccc2n(CC)c1=O | 0.23 | -0.41
O=C(Nc1nc(-c2cccc3ccccc23)cs1)c1cnccn1 | 3.8 | 0.03
COc1cc2c(cc1OC)C1=C(C#N)CCC(=O)N1CC2 | 0.01 | 0.68
COc1ccc(Nc2nc(C(F)(F)F)nc(C)c2C#N)cc1 | 0.47 | -0.24
Cc1ccc(-c2nn(-c3ccccc3Cl)cc2C(=O)NCC2CCCO2)cc1 (centres undefined) | 0.32 | 0.19
CS(=O)(=O)N1CCC(C(=O)c2cccc(Cl)c2)CC1 | 0.27 | 1.5
CC(C)(C)NC(=O)Cn1c(SCC(=O)NC2CC2)nc2ccccc21 | 0.27 | -0.25
C=CCc1cccc(/C=N/NC(=O)CNc2cccc3ccccc23)c1O | 0.98 | -0.79
CC(=O)Nc1nc2ccccc2n1Cc1ccccc1Cl | 0.88 | -0.46
CC(=O)N1CCN(C(=O)CCN(c2ccccc2)S(=O)(=O)c2ccc(C)cc2)CC1 | 1.5 | 1.6
O=C(CSc1nnc(C2CC2)n1-c1ccccc1)NCc1ccco1 | 0.1 | -0.89
O=C(Nc1ccc(N2CCCC2)c(Cl)c1)c1ccc2c(c1)OCCO2 | 0.48 | 0.64
CC(=O)N1CCN(CC(=O)Nc2c(Cl)ccc(C)c2Cl)CC1 | 2.2 | -1.5
CC(=O)NN1C(=O)/C(=C2/Sc3ccccc3N2C)SC1=S | 0.2 | 1.4
COc1cc(NC(=O)N[C@@H](Cc2ccccc2)C(=O)O)cc(OC)c1 | 0.21 | -0.04
O=C1NC2(CCCCC2)C(=O)N1Cc1cc(=O)n2ccsc2n1 | 0.71 | 1.7
CC(C)NS(=O)(=O)c1ccc(NC(=O)C(C)Oc2ccc(C(=O)c3ccccc3)cc2)cc1 (centres undefined) | 2.4 | -0.12
O=C1CC(N2CCN(c3ccc(F)cc3)CC2)C(=O)N1c1ccccc1 (centres undefined) | 0.36 | 1.6
COCCn1c(C)cc(C(=O)CSc2nc3ccccc3c(=O)[nH]2)c1C | 0.31 | 0.02
C/C(CC(=O)Nc1ccc2c(c1)OCCO2)=N\NC(=O)COc1ccccc1 | 0.32 | -0.57
Cc1cc2nnc(SCC(=O)NCc3ccco3)n2c2ccccc12 | 8.7* | -0.1*
COc1cccc(NC(=O)NCCCSC2CCCCC2)c1 | 6.5* | -0.56*
CCCCc1ccc(NC(=S)NCc2cccnc2)cc1 | 2.2 | -0.79

Laid out differently: five of the compounds above.
KCNQ2 enhance,KCNQ2 enhance baseline,SMILES
0.31,0.02,COCCn1c(C)cc(C(=O)CSc2nc3ccccc3c(=O)[nH]2)c1C
0.48,0.64,O=C(Nc1ccc(N2CCCC2)c(Cl)c1)c1ccc2c(c1)OCCO2
2.2,-0.79,CCCCc1ccc(NC(=S)NCc2cccnc2)cc1
0.71,1.7,O=C1NC2(CCCCC2)C(=O)N1Cc1cc(=O)n2ccsc2n1
8.7*,-0.1*,Cc1cc2nnc(SCC(=O)NCc3ccco3)n2c2ccccc12

Compound profiles (already shown):
COCCn1c(C)cc(C(=O)CSc2nc3ccccc3c(=O)[nH]2)c1C reads KCNQ2 enhance: 0.31; KCNQ2 enhance baseline: 0.02
COc1cccc(NC(=O)NCCCSC2CCCCC2)c1 reads KCNQ2 enhance: 6.5*; KCNQ2 enhance baseline: -0.56*

Remaining list, next part
SMILES | KCNQ2 enhance | KCNQ2 enhance baseline
CCC(=O)c1ccc(N2CCCC2)c(F)c1 | 1.1 | 2.7
O=C(CNCc1cccs1)Nc1ccc(N2CCCCCC2)cc1 | 1.1 | -5.2
COc1ccccc1NS(=O)(=O)c1cccc(NC(=O)Cc2cccs2)c1 | 0.95 | -0.31
CCOCCCn1cnc2c([nH]c3cc(OC)ccc32)c1=O | 1.3 | 0.03
O=C(/C=C/c1ccc(Cl)cc1)NCc1ccco1 | 0.76 | 2.9
O=C(CSc1nnnn1-c1ccccc1)NC(=O)NCc1ccco1 | 1.4 | -0.52
CC(C)C(NS(=O)(=O)c1ccccc1)C(=O)N1CCCC1 (centres undefined) | 0.55 | -0.89
CSC1=NCCN1C(=O)c1c(F)cccc1F | 0.62 | -2.3
Cc1cc(NS(=O)(=O)c2ccc(NC(=O)c3cccc(OC(F)F)c3)cc2)nc(C)n1 | 0.64 | 0.33
O=C(CCNC(=O)c1ccc([N+](=O)[O-])cc1)Nc1ccccc1N1CCCCC1 | 0.91 | 0.06
Cn1nccc1C(=O)N/N=C/c1ccccc1[N+](=O)[O-] | 1.3 | -0.02
Cc1nc2sc(C(N)=O)c(N)c2c(C)c1CC(=O)c1ccccc1 | 0.39 | -0.27
C=CCn1c(N2CCCC2)nc2c1c(=O)n(C)c(=O)n2C | 0.06 | 2
CCCOP(=O)(c1ccc(N(C)C)cc1)C(O)c1ccncc1 (centres undefined) | 1.3 | -4.9
O=C(Nc1nncs1)c1cccc(S(=O)(=O)N2CCCCC2)c1 | 0.07 | 0.13
CC(C)(C)OC(=O)N1CCC(c2c(C(=O)NC3CC3)cnn2-c2ccc(Cl)cc2)CC1 | 0.16 | -0.37
O=C(C1CCCN(C2CC(=O)N(c3ccc(F)cc3)C2=O)C1)N1CCCC1 (centres undefined) | 0.12 | -2.3
CCCC(=O)N/C(N)=N/c1nc2ccccc2o1 | 2.4 | -2.4
CC1=C(C(=O)OCC2CCCO2)C(c2ccc(C)cc2)C2=C(CC(C)(C)CC2=O)N1 (centres undefined) | 0.66 | -1.5
COCc1nnc(NC(=O)c2cccc(NC(=O)C(C)C)c2)s1 | 1.9 | -0.19
O=C(CN1C(=O)NC2(CCCc3ccccc32)C1=O)NC1CCCCC1 (centres undefined) | 0.14 | 0.62
CCS(=O)(=O)N1CCCC(C(=O)NCCCOC)C1 (centres undefined) | 0.22 | -0.12
CCCCOC(=O)Nc1ccc2c(C)cc(=O)oc2c1 | 1.3 | -1.3
Cc1onc(-c2c(Cl)cccc2Cl)c1C(=O)NCc1ccccn1 | 0.68 | 0.42
Cc1cc(N2C(=O)C(O)=C(C(=O)c3cc4ccccc4o3)C2c2cccs2)no1 (centres undefined) | 1.7 | -0.43
CCOC(=O)C1(CC2CCCCO2)CCN(Cc2cn[nH]c2-c2cccc(F)c2)CC1 (centres undefined) | 0.26 | -0.43
COc1ccc(CCNC(=O)C(=O)c2cn(CC(=O)N3CCOCC3)c3ccccc23)cc1 | 0.58 | -0.48
Cc1nn(Cc2ccccc2)c2sc(C(=O)NCc3cccnc3)cc12 | 1.4 | -0.09
Cc1ccc(C(C(=O)NCc2ccc(F)cc2)N(Cc2ccco2)C(=O)c2snc(C(N)=O)c2N)o1 (centres undefined) | 0.26 | -0.06
COc1ccc2nc(-c3ccccc3)nc(C3CCCCC3)c2c1 | 0.87 | 0.37
CC(C)N(Cc1ccccc1)S(=O)(=O)c1ccc2c(c1)NC(=O)CO2 | 0.88 | -0.58
Cc1ccc(S(=O)(=O)Nc2ccc(C(=O)N3CCN(c4ccccc4O)CC3)cc2)cc1[N+](=O)[O-] | 0.12 | 1.1
O=C(NNS(=O)(=O)c1ccccc1)c1cc2cc3ccccc3nc2s1 | 2.1 | -0.11
CC(C)Sc1nnc(NC(=O)c2ccc3c(c2)OCO3)s1 | 1.8 | -3
CC(=O)Cc1cc(O)c2ccccc2c1OC(=O)c1ccc(Br)cc1 | 0.49 | 0.58
CC(C)CN(C(=O)COC(=O)Cc1c[nH]c2ccccc12)C1CCS(=O)(=O)C1 (centres undefined) | 0.17 | 1.4
CC1(c2nnc(Cc3ccccc3)o2)CC(c2ccc(Br)cc2)=NO1 (centres undefined) | 1.1 | 0.08
CC1CC(C)CN(CCCOc2ccccc2[N+](=O)[O-])C1 (centres undefined) | 1.8 | -0.05
Cc1cc(C)c2c(n1)SCC(=O)N2CC(=O)Nc1ccc(F)cc1 | 0.05 | 0.46
C=Cn1c(C(=O)O)ccc1-c1ccc(CC)cc1 | 0.89 | 0.41
Cc1c(NC(=O)C(C)OC(=O)/C=C/c2ccco2)c(=O)n(-c2ccccc2)n1C (centres undefined) | 2.3 | -2.7
CS(=O)(=O)N(CC(=O)N1CCN(c2ccccc2)CC1)c1cccc(Br)c1 | 0.11 | -0.38
CCOC(=O)c1ccc(NC(=O)C(=O)NCc2ccc(/C=C(/C#N)C(=O)NCCOC)o2)cc1 | 0.03 | 0.65
O=S(=O)(c1ccccc1Cl)N1CCCC(c2nc(-c3cccnc3)no2)C1 (centres undefined) | 0.89 | -1.6
Cc1ccc(N2C(=O)C3C(C2=O)C2C=CC3C23CC3)c([N+](=O)[O-])c1 (centres undefined) | 0.07 | 1.1
Fc1cccc(F)c1CN1CCN(c2ncccn2)CC1 | 0.22 | -0.81
CC(O)c1nc2cc([N+](=O)[O-])ccc2n1Cc1ccccc1 (centres undefined) | 0.13 | -0.83
Cc1cccc(OCc2nnc(SC(C)C(=O)O)n2-c2ccccc2)c1 (centres undefined) | 0.47 | 0.95
COc1ccc(C(=O)NC2CCN(C(=S)Nc3ccc(C)cc3)CC2)cc1 | 0.12 | -0.18
Cc1ccc(/C=C\c2nccc3c2[nH]c2ccccc23)cc1 | 0.09 | -0.67
COc1cccc(C(=O)NN2CC(O)=C(c3nc4ccccc4s3)C2=N)c1 | 0.02 | -0.25
COc1ccccc1C(=O)Nc1ccc2c(c1)CN(Cc1cnc(C)s1)CC2 | 0.03 | -1.4
CCCCCCc1cc2cc(C(=O)Nc3ccc(OC)cc3)c(=O)oc2cc1O | 1.7 | 0.43
CC(NC(=O)C(CC(=O)OC(C)(C)C)NC(=O)OC(C)(C)C)C(N)=O (centres undefined) | 1.1 | 0.01
CCOC(=O)c1cc2nc(-c3ccco3)cc(C(F)(F)F)n2n1 | 0.81 | 1
COc1ccc(C2C(C(=O)c3ccco3)=C(O)C(=O)N2CCOCCO)cc1OC (centres undefined) | 0.6 | -1.4

Bioassay records (PubChem)

Not all compounds are listed; the hit share may differ from the screen's.
